Assay outcomes from PubChem BioAssay.
D2 potentiator: positive allosteric modulators of human D2 dopamine receptor. P14416. DiscoveRx D2 beta-arrestin cells, luminescence, 90 min; 100% = 57 uM dopamine signal. potentiation, % (test concentration not listed). hit rate 0.23% among 360,000. AID 624464; active = potentiation of 50% or more; inconclusive = 30% to 50%; inactive = 30% or less;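 further: compound concentration not given in the record; tested on top of an EC20 dose of dopamine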
Target sequence (P14416 whole entry, looked up): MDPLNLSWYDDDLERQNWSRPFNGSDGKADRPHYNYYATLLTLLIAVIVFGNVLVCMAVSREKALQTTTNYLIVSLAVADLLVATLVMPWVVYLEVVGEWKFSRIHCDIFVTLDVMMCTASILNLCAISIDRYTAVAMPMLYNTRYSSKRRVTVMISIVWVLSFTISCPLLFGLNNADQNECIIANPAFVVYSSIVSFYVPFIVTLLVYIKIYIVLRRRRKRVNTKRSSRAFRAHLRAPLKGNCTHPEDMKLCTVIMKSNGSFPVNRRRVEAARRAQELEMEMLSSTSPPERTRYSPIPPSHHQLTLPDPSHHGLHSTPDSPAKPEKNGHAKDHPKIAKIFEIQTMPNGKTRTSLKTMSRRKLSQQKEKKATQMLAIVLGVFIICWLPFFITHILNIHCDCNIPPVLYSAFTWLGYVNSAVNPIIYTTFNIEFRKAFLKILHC
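PathHunter beta-arrestin assay in DiscoveRx D2 cells. Compounds were added with an EC20 of dopamine (50 nM final) for 90 min at 37 deg C. Luminescence was read 1 h after detection reagent, with 57 uM dopamine as the EC100 control.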
CtBP-E1A inh: inhibitors of CtBP/E1A interaction; AlphaScreen GST-E1A/His-CtBP binding, 1536-well; stronger effect = lower value; control for the full effect not named in the record; activity change, % (no concentration beside the values); hit rate 0.49% among 340,000; AID 651724; in the data active means activity change below about -65%; inconclusive means about -30% to -65%; inactive means above about -30%; further: on the % scale 0 is the no-effect control and ±100 the full control effect; compound concentration not given in the record
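Protein mix (5X: 125 nM each GST-E1A, His-CtBP) was incubated with pinned compound 2 h at 37 deg C in dark, in 50 mM Tris pH 8.0 buffer with 300 mM NaCl. Glutathione donor and nickel acceptor beads followed; AlphaScreen signal read after 1 h.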
TRPML1 agonist: activates the human TRPML1 channel; hit rate 0.12% among 410,000; Q9GZU1; AID 624414; TRPML1-expressing cells, Ca2+ dye fluorescence, FDSS; host cell line not named in the record; reference of the full effect not given here; activation, % (concentration not given with the values); in the data active = activation above about 50%; inconclusive = about 30% to 50%; inactive = below about 30%; further: 0% is about no effect; the text of the record puts the active cut at 80%
Target sequence (Q9GZU1 whole entry, looked up): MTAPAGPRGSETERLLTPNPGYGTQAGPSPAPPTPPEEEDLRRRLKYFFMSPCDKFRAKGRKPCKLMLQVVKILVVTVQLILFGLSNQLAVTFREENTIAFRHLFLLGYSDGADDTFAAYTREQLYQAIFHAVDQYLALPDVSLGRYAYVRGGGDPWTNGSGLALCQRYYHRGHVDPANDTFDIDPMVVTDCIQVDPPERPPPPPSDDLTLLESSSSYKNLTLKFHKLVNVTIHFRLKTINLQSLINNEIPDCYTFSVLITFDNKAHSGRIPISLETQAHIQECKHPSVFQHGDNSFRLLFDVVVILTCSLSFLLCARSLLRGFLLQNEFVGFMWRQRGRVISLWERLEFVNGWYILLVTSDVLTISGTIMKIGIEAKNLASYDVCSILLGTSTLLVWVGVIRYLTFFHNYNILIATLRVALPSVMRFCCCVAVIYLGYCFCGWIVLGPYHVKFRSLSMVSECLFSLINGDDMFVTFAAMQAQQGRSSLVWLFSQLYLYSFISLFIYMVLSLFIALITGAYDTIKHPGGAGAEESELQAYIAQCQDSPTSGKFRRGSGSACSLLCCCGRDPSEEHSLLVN
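TRPML1-DL cells, Tet-induced overnight (~16 h, 37 degrees C), loaded 45-90 min at room temperature with Ca8 no-wash calcium dye plus quencher. FDSS fluorescence: 10 s baseline, compound pin-transfer, 110 s agonist read, then EC80 54-4 (4uM final) and 110 s antagonist read.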
Six1-Eya2 inh: Six1/Eya2 interaction inhibition; Q15475+O00167; AID 651725; AlphaScreen GST-Six1/His-Eya2 binding, biochemical; stronger effect = lower value; control for the full effect not named in the record; activity change, % (test concentration not listed); hit rate 0.56% among 360,000; in the data active = activity change below about -65%; inconclusive = about -30% to -65%; inactive = above about -30%; further: on the % scale 0 is the no-effect control and ±100 the full control effect; compound concentration not given in the record
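AlphaScreen luminescence read after one hour at 37 °C in darkness. Pin-transferred compounds met GST-Six1 and His-Eya2 protein (5X stock 250 nM/500 nM) plus glutathione donor and Ni-chelate acceptor beads (5X, 50 ug/mL).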
TRPV1 PAM: potentiators of human vanilloid receptor 1 (TRPV1); potentiation, % at 8.33 µM; hit rate 0.02% among 320,000; TRPV1-expressing cells, Fluo-8 calcium influx, capsaicin EC20 potentiation; host cell line not named in the record; control for the full effect not named in the record; Q8NER1; active means potentiation above 80%; inconclusive means 30% to 80%; inactive means below 30%; further: 0% is about no effect
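Fluo-8 calcium influx in TRPV1-expressing cells, kinetic read (ex 480/em 520 nm). Compound added and read 3 min for agonist activity, followed by capsaicin at EC20 final and 2 min further read for enhancement.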
TRPML1 inh: inhibitors of human TRPML1 channel; TRPML1-inducible cells, Ca2+ dye fluorescence, FDSS; stronger effect = lower value; inhibition of EC80 agonist-evoked calcium signal; activity change, negative = inhibition, % (no concentration beside the values); hit rate 0.02% among 390,000; AID 624415; in the data active means activity change below about -50%; inconclusive means about -30% to -50%; inactive means above about -30%;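 further: stimulus is agonist 54-4 at its EC80 concentration; on the % scale 0 is the no-effect control and ±100 the full control effect; compound concentration not given in the record; the text of the record puts the active cut at -80%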
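Calcium fluorescence in TRPML1-DL cells induced overnight with Tet: a 110 s read after compound pin addition, then a 110 s antagonist read after challenge with 54-4 at 4 uM final (EC80).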
* hit, by the source's call; ? = inconclusive; nt = no result given.

SMILES	D2 potentiator	CtBP-E1A inh	TRPML1 agonist	Six1-Eya2 inh	TRPV1 PAM	TRPML1 inh
COc1ccc(C(=O)Nc2ccc(Cl)c(S(=O)(=O)Nc3ccccc3OC)c2)cc1	10.3	-22.5	1.6	-28.3	5.7	25.2
COc1cccc(NS(=O)(=O)c2ccc3c(c2)C2C=CCC2C(c2ccc(C(=O)O)cc2)N3)c1 (configuration not stated)	9.0	2.7	-0.5	?	12.0	10.2
CC(C)(C)NC(=O)CN(Cc1ccc2c(c1)OCO2)C(=O)CCC(=O)Nc1nccs1	-1.6	7.0	4.2	-2.9	6.3	-9.0
O=C(Nc1nc2ccc([N+](=O)[O-])cc2s1)C1CCCO1 (configuration not stated)	-3.5	-7.1	-0.6	-0.1	-5.1	3.4
Cc1ccc(S(=O)(=O)N2CCCCC2CCNC(=O)C(=O)NC2CC2)cc1 (configuration not stated)	-10.5	4.9	-0.6	1.6	-6.4	19.1
C=CCn1c(CCc2ccc(OC(C)C)cc2)n[nH]c1=S	-3.6	nt	-1.6	-2.8	7.8	10.3
O=C(CN1CCc2ccccc2C1)Nc1ccc(OC(F)(F)F)cc1	-5.4	0.7	2.2	26.6	2.8	2.9
Cc1c(C(=O)N2CCCCC2)c(S(=O)(=O)Nc2cccc(Br)c2)c(C)n1C	-9.1	-6.6	-0.5	-5.7	-1.6	-4.3
Cc1cccc(-c2cccc(NC(=O)C3CCCN(C(=O)c4cccnc4)C3)c2)c1 (configuration not stated)	-10.6	0.8	-0.5	2.5	?	-3.5
Cc1nn(CC(=O)Nc2ccc(Cl)cn2)c(C)c1[N+](=O)[O-]	-7.9	1.2	0.2	-0.1	3.5	-16.6
CCOC(=O)C1CCCN(c2c(NCc3ccco3)c(=O)c2=O)C1 (configuration not stated)	-10.2	0.0	1.3	12.4	9.9	5.4
COc1ccc(-c2cc(C(=O)NCc3ccc(Cl)cc3)no2)cc1OC	-0.2	1.7	2.0	2.8	5.5	1.5
CCN1CCn2c1nc(N1CCOCC1)nc2=O	10.3	12.4	0.5	4.1	-4.7	11.6
COc1ccc(C(=O)NNC(=O)COc2ccc(Cl)cc2)c(OC)c1	19.1	-1.7	1.0	11.4	11.6	-9.2
CCOC(=O)C1(CCOc2ccccc2)CCN(CC=C(C)C)CC1	-23.0	0.2	-0.2	-6.6	1.7	2.1
CN(Cc1nc(-c2ccncc2)no1)S(=O)(=O)c1ccc(Br)cc1	-4.7	1.4	-0.4	0.9	-8.2	10.3
COc1ccc(NC(=O)c2c(N)no[n+]2[O-])c(OC)c1	3.9	-2.5	-0.2	-1.9	4.0	-12.7
CCOc1ccc(CSC2=NCCN2)cc1[N+](=O)[O-]	-19.1	1.3	0.3	4.3	13.9	-9.3
COc1ccc(NC(=O)c2cccnc2Sc2ccccc2)c(OC)c1	-3.4	0.9	-0.5	-3.1	-30.9	4.7
CCOC(=O)CNC(=O)Cn1cnc2sc(C)c(S(=O)(=O)N3CCC(C)CC3)c2c1=O	0.7	5.0	3.6	5.3	0.5	-8.5
Cc1ccc2c3c(c(SCC(=O)Nc4nonc4C)nc2c1)CCCC3	-3.8	3.3	1.3	4.5	0.4	39.8
N/C(=N\OC(=O)c1ccc(Cl)cc1)c1ccc(Cl)cc1	86.2*	15.3	-0.8	-0.5	-5.5	-23.4
COc1ccc(/C=C/C(=O)Nc2ccccc2C)cc1S(=O)(=O)N1CCOCC1	-5.5	0.0	-0.8	-15.2	17.3	9.4
NC(=O)CSc1n[nH]c(=O)n1CCc1ccccc1	-5.3	1.5	1.0	9.7	13.3	23.4
CCOc1cc(C)c(Cl)cc1S(=O)(=O)NCc1ccco1	8.5	-16.1	-0.3	1.4	-7.7	8.1

2 compounds from above, limited to TRPML1 inh.
canonical_smiles	TRPML1 inh
NC(=O)CSc1n[nH]c(=O)n1CCc1ccccc1	23.4
CCOc1cc(C)c(Cl)cc1S(=O)(=O)NCc1ccco1	8.1

Going on with the list.
SMILES	D2 potentiator	CtBP-E1A inh	TRPML1 agonist	Six1-Eya2 inh	TRPV1 PAM	TRPML1 inh
Cc1ccccc1NC(=O)c1ccco1	-0.6	-5.9	0.6	1.0	5.7	-14.5
CN(C)c1nc(N(C)C)n(C(=O)c2ccc(F)cc2)n1	-1.7	-1.0	2.1	-4.6	14.8	26.4
C=CCNc1nc(Nc2ccc(OC)cc2OC)nc(OCC)n1	6.5	-2.0	-0.1	-4.2	13.7	2.7
COc1ccc(C(=O)O)cc1S(=O)(=O)NCCc1ccccn1	1.4	3.9	0.7	5.3	6.1	-1.8
CCOc1cnn(-c2cc(Oc3ccc(C)cc3)ncn2)c(=O)c1Cl	-2.9	-7.3	-0.7	-0.3	2.7	5.8
COc1ccc(NC(=O)CCN=C2NS(=O)(=O)c3ccccc32)cc1S(=O)(=O)N(C)C	-4.8	nt	0.1	-0.4	5.6	30.1
COC(=O)c1sccc1N/N=C(\C)c1ccc(F)c(Cl)c1	5.9	8.8	1.0	7.3	27.0	1.4
Cc1cc(C)c2cc(CN(CCO)Cc3nnnn3Cc3ccc(F)cc3)c(=O)[nH]c2c1	-1.8	0.7	-0.9	-1.1	-2.4	-2.8
CCCc1nnc(NC(=O)CCC(=O)N2CCN(S(=O)(=O)c3ccc(F)cc3)CC2)s1	1.7	10.8	nt	3.7	-4.3	nt
O=S(=O)(Nc1ccc(OC(F)(F)F)cc1)c1cccc2nonc12	-16.7	-7.1	1.2	-6.4	-2.7	12.8
CC1=[N+](C)N(c2ccccc2)C(=O)C1N=Cc1c(Cl)cccc1Cl (configuration not stated)	-4.0	6.3	-0.2	1.7	-2.8	4.0
COc1ccc(C)cc1NCc1ccc([N+](=O)[O-])cc1	2.5	-20.7	-0.6	?	21.0	-6.5
CCCCC(=O)N(C)c1c(CC)nc2c(OCc3ccc(C(F)(F)F)cc3)cccn12	-10.5	1.9	0.5	-6.6	nt	nt
Cc1ccc(N2CC(C(=O)NCc3cccs3)CC2=O)cc1 (configuration not stated)	2.4	-4.0	0.2	7.9	-8.5	-9.0
CN(C(=O)COC(=O)CCC(=O)c1ccc(Cl)cc1)c1c(N)n(Cc2ccccc2)c(=O)[nH]c1=O	1.8	0.0	0.4	7.1	18.3	3.9
Cc1cc(C)cc(NC(=O)C2CCN(c3cnccn3)CC2)c1	-5.2	-3.3	0.9	-0.6	-17.7	-9.6
Cc1ccc(NC(=O)CN2C(=O)COc3ccc(S(=O)(=O)N4CCCC4)cc32)c(C)c1	-7.1	1.3	-1.1	2.4	17.6	-11.9
Cc1ccccc1-c1cc(C(=O)NCc2cccs2)nn1CC1CC(c2cccc([N+](=O)[O-])c2)=NO1 (configuration not stated)	-17.8	-27.3	-0.6	-9.4	-3.5	-1.1
Cn1c(=O)c2c(ncn2CC(=O)OCC(=O)Nc2cccc(C#N)c2)n(C)c1=O	-12.0	3.4	-0.2	0.2	nt	-6.0
Cc1cc(C#N)c(C)n1-c1cc(S(=O)(=O)N2CCOCC2)ccc1N1CCCC1	2.6	-0.2	-0.4	-8.0	4.8	6.9
Cc1ccc(C(=O)Nc2ccc(F)cc2)cc1NC1=NC2CS(=O)(=O)CC2S1 (configuration not stated)	-0.8	3.4	-0.1	-7.6	-0.6	-2.7
CCOc1ccc(C2C(C(=O)c3ccco3)=C(O)C(=O)N2CCCn2ccnc2)cc1OCC (configuration not stated)	-8.3	3.0	-0.7	2.3	-10.5	16.5
COc1ccc(-c2cc3c(=O)n(CC(=O)NCc4ccc(Cl)cc4)ncn3n2)cc1	-2.1	0.4	-0.2	5.9	9.5	-12.4
O=C1N/C(=N/O)S/C1=C\c1ccccc1-n1cccn1	4.3	-21.3	0.3	-3.8	3.9	-16.3
O=C(O)/C=C/c1cnc2ccccc2c1	-8.1	-18.3	-0.2	-3.3	2.2	5.0

Remaining list, next part
SMILES	D2 potentiator	CtBP-E1A inh	TRPML1 agonist	Six1-Eya2 inh	TRPV1 PAM	TRPML1 inh
O=C1NC2(CCCCCC2)C(=O)N1Cc1cccc(Cl)c1	-5.1	-3.8	0.8	11.3	0.0	-16.7
COc1ccc(-n2c(Cc3cccn3C)nnc2SCC(=O)NCCc2ccccc2)cc1	-6.4	-26.5	-0.6	-19.1	29.5	27.7
O=C(NCCCn1ccnc1)c1cc2c(s1)CCCCC2	-14.3	-1.4	-0.3	2.1	-1.1	-6.3
CCOc1ccc(S(=O)(=O)Nc2ccc(C(=O)NCC(c3ccccc3)N(C)C)cc2)cc1 (configuration not stated)	-42.3	-7.4	5.5	-7.9	-1.2	-2.8
Cc1ccc(NCC(=O)N/N=C/c2ccc(OC(=O)c3ccco3)cc2)cc1	4.5	10.6	0.6	?	6.2	-10.4
COc1ccc(OC)c(C2c3c(oc4ccccc4c3=O)C(=O)N2CCCN(C)C)c1 (configuration not stated)	-10.8	0.2	-0.1	3.4	-7.3	18.5
O=C(CCCc1ccccc1)NCCC1=CCCCC1	-14.6	-12.8	-0.6	0.0	-7.6	4.3
O=C(CN(Cc1ccc(F)cc1)C(=O)Cn1nnc2ccccc21)NCC1CCCO1 (configuration not stated)	-8.2	7.2	-0.2	1.2	3.9	9.2
O=C(N[C@@H](Cc1ccccc1)C(=O)OCc1ccccc1)c1nc[nH]c1C(=O)NCc1ccccc1	-6.7	-24.1	1.9	-2.2	12.3	14.5
N/C(=N\OC(=O)Cc1ccc(Cl)cc1)c1cccnc1	5.2	16.2	0.8	10.8	-4.4	-0.2
Cc1sc(NC(=O)c2cccs2)c(C(N)=O)c1C	1.6	?	0.7	-20.5	9.7	-1.1
CC(NC(=O)c1cccnc1)c1ccc2c(c1)OCO2 (configuration not stated)	-7.7	5.4	2.1	2.6	-3.4	4.3
Cc1nn(-c2nc3ccccc3s2)c(C)c1Oc1ccccc1O	-3.5	-11.3	-0.2	-16.7	-6.1	22.6
O=C(Nc1cccc(Cl)c1)C1C2C=CC3(O2)C1C(=O)N(CCN1CCCCC1)C3C(=O)NC1CCCCC1 (configuration not stated)	-13.3	1.8	-0.3	3.2	12.7	-5.2
O=C(CSc1ccccc1)NCCSCc1ccccc1	13.2	-2.0	0.1	1.4	-12.4	12.8
Cc1ccc(/C=C(\C#N)c2nn(-c3ccccc3)c(N)c2C#N)cc1	7.3	-11.6	4.1	-1.4	-3.7	20.7
CC1CCCCC1NC(=O)c1cccc(S(=O)(=O)N2CCN(Cc3ccccc3)CC2)c1 (configuration not stated)	4.8	-22.3	1.5	-1.5	-9.1	0.0

Compound profiles, from the list above. Screens in order: D2 potentiator	CtBP-E1A inh	TRPML1 agonist	Six1-Eya2 inh	TRPV1 PAM	TRPML1 inh
COc1ccc(-c2cc(C(=O)NCc3ccc(Cl)cc3)no2)cc1OC is entered as -0.2	1.7	2.0	2.8	5.5	1.5
O=C(CCCc1ccccc1)NCCC1=CCCCC1 is entered as -14.6	-12.8	-0.6	0.0	-7.6	4.3
Cc1cc(C#N)c(C)n1-c1cc(S(=O)(=O)N2CCOCC2)ccc1N1CCCC1 is entered as 2.6	-0.2	-0.4	-8.0	4.8	6.9
CCOc1ccc(CSC2=NCCN2)cc1[N+](=O)[O-] is entered as -19.1	1.3	0.3	4.3	13.9	-9.3
CCOc1ccc(C2C(C(=O)c3ccco3)=C(O)C(=O)N2CCCn2ccnc2)cc1OCC (configuration not stated) is entered as -8.3	3.0	-0.7	2.3	-10.5	16.5
